PKD1 inh = inhibitors of human PKD1 kinase; Q15139; PKD1 kinase fluorescence polarization assay; hit rate 0.056% among 200,000; inhibition, %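 (about 10 µM by stock and volumes)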;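 active = inhibition of 50% or more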;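 note: controls were vehicle for no effect and a reference inhibitor for full effect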
HSV replic up = HSV replication enhancement. AID 1956. HSV replication augmentation in cells, fold increase. hit rate 0.005% among 220,000. maximum fold increase;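 active = peak rise of 1.5-fold or more in the series; tested in PC3 cells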;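 note: first round at 10 µM; read as green reporter fluorescence; hits show the peak of a series up to 25 µM; 1 = signal of infected wells without compound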
INS promoter inh = TRM-6 insulin promoter activity inhibition; TRM-6 cells (human fetal islet line), insulin promoter-eGFP reporter, imaging; reporter expression induced with tamoxifen; inhibition, % at 2 µM; hit rate 0.9% among 130,000;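 active = inhibition above the mean plus 3 SD, with well images judged a real hit on visual review, cut at about 60% in these data, passing the limit was not always enough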
RGS16-Gao = RGS16-Galphao interaction regulator (human); O15492+P09471; bead-based flow cytometry RGS16-Galphao binding, fluorescence; actives lie on both sides; binding response (% of control), % at 10 µM; hit rate 0.38% among 220,000;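 active = below 25% or above 175%, edge rows of some plates excepted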;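 note: Galphao activated by GDP with aluminum fluoride before binding; 100% = wells without compound and 0% = beads without RGS; some results beyond the cut were filed as inactive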
Target sequence (O15492 whole entry, looked up): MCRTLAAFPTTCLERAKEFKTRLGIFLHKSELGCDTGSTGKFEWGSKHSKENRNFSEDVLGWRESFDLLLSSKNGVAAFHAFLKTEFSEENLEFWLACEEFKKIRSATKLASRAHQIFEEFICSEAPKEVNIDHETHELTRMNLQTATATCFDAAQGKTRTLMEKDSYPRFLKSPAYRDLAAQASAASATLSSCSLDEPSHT
Target sequence (P09471 whole entry, looked up): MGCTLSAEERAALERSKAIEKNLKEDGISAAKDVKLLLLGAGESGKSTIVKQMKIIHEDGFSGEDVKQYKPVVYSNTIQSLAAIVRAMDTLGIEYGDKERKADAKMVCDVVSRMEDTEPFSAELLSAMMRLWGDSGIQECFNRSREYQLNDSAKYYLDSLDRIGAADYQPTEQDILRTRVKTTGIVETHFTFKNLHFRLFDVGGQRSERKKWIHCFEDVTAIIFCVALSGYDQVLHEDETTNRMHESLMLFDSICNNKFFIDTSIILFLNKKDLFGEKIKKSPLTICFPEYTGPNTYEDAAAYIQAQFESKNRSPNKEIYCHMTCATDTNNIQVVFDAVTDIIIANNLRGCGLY
GALR2 agonist = activates the human galanin receptor 2. activation, %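 (tested at 5 µM)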. GALR2-expressing cells, agonist activation read-out. hit rate 0.48% among 140,000. O43603;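 active = above mean plus 3 SD of all compounds, about 5% in these data, not always enough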;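 note: 0% = vehicle buffer wells and 100% = reference agonist at full effect; tested in CHO reporter cells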
Target sequence (O43603 whole entry, looked up): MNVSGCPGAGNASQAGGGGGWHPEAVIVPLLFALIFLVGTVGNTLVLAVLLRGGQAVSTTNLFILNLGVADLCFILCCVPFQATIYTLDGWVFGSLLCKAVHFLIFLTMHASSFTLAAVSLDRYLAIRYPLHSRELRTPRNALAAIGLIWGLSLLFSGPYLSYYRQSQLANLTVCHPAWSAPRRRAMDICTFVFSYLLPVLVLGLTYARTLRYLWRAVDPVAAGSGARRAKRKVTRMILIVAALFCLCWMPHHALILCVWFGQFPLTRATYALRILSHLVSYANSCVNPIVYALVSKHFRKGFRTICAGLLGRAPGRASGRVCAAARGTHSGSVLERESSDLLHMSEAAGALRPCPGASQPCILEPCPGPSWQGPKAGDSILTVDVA
INS promoter inh cell count = further read-out of INS promoter inh, marked with its call; normalized cell count, %; measured here: cell count, toxicity; reference of the scale not given here;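 cells exposed to compound for 48 h; stained nuclei by imaging scaled within each plate; lower means fewer cells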
HSV replic up primary fold = also measured in HSV replic up; calls as there; fold increase; compound at 10 µM; measured here: primary screen fold increase 10 uM; tested in PC3 cells;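 GFP signal in the first replicate; 1 = infected wells without compound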
Starred values were filed as active, the others as inactive; i = inactive; · = not tested or not shown. Rows are unselected; about 1.3% have a hit in one of these screens.

Compound	PKD1 inh	HSV replic up	HSV replic up primary fold	INS promoter inh	INS promoter inh cell count	RGS16-Gao	GALR2 agonist
CC(C)Nc1nc(Oc2ccc(Cl)cc2Cl)cc(C(F)(F)F)n1	-13	i	1.1	35	97	103	-3.9
CCOc1ccccc1N(CC(=O)NC1CCCCC1)C(=O)CNC(=O)c1ccco1	-5	i	1	-338	73	105	-2.3
COC(=O)c1cc2sc(Cl)cc2n1CC(=O)NCC1CCCO1 (centres undefined)	-6	i	0.89	6	208	95	2.2
COc1ccc(NCc2nnc(SCc3ccccc3)n2-c2ccc(OC)cc2)cc1	-6	i	1.1	-43	91	108	-3.0
NC(=O)C(c1ccc(Cl)cc1)c1ncc(C(F)(F)F)cc1Cl (centres undefined)	2	i	0.88	-10	103	100	-1.7
CCCCNC(=S)Nc1cc([N+](=O)[O-])ccc1C	-5	i	0.97	-14	110	109	-0.4
COc1ccc(NC(=O)C2CCN(c3nc(C)cc(C)n3)CC2)cc1	-4	i	0.89	7	118	39	-1.7
O=[N+]([O-])c1cc(C(F)(F)F)ccc1N/N=C/c1cc2ccccc2nc1Cl	-4	·	·	·	·	107	-0.2
COc1cc(/C=C2/NC(=O)NC2=O)cc(Br)c1OCc1ccc(C(=O)O)cc1	-8	i	0.92	-8	125	104	·
O=C(COC(=O)/C=C/c1cccc(F)c1)Nc1ccccc1-c1ccccc1	4	i	1.1	18	72	82	-1.5
Cc1ccc(C(NC(=O)NCCCN2CCOCC2)=C(Cl)Cl)cc1F	3	i	1	19	60	142	-2.3
COc1ccc(C(CC(=O)N2CCN(c3ccccc3)CC2)c2c(OC)cc(OC)c3c(-c4ccccc4)cc(=O)oc23)cc1 (centres undefined)	·	i	0.98	·	·	100	·
CC(NS(=O)(=O)c1ccc(CCC(=O)NCC2CCCO2)cc1)c1ccccc1 (centres undefined)	2	i	0.86	-106	40	90	-0.3
CCOC(=O)c1c(CN2CCCCC2)n(C)c2cc(Br)c(OC)cc12	-5	i	0.84	22	118	100	-2.2
Nc1nc(SCC(=O)NC2CCCCCC2)[nH]c(=O)c1-c1ccccc1	-3	i	0.9	-68	127	104	-0.3
C=CCSc1nnc(NC(=O)c2nc(SCC)ncc2Cl)s1	-10	i	1	0	109	101	-0.9
CC(C)=NNc1nc(-c2ccc([N+](=O)[O-])cc2)cs1	2	i	0.99	·	·	97	·
CS(=O)(=O)N1N=C(c2ccccc2)CC1c1ccc2c(c1)OCO2 (centres undefined)	-8	·	·	i	130	103	-1.4
CCc1ccc2c(c1)C(=O)C(=O)N2CC(=O)Nc1ccc(NC(=O)c2ccccn2)cc1	6	i	0.99	·	·	99	·
COC(=O)C(NC(=O)CCc1c(C)nc2ncnn2c1C)C(C)C (centres undefined)	-4	i	0.93	-11	119	102	-0.8
Cc1cn(C2OC(COC(=O)c3ccccc3)C(OC(=O)c3ccccc3)C2OC(=O)c2ccccc2)c(=O)[nH]c1=O (centres undefined)	0	i	0.91	66	130	105	-0.5
O=C(N/N=C/c1cc2ccccc2nc1Cl)c1ccncc1	-4	i	0.99	42	103	107	·
Cc1cc(=O)oc2cc(Oc3ncccc3[N+](=O)[O-])ccc12	0	i	1.2	·	·	98	·
O=C1Nc2ccccc2N(O)N1c1ccc(S(=O)(=O)N2CCCCCC2)cc1	-3	i	1	-8	66	106	-0.6
O=C(CCNS(=O)(=O)c1ccc(Br)s1)Nc1ccc(Cl)cc1	-5	i	1.2	-26	153	143	-3.0
CCOc1ccccc1C(=O)N1CCN(C(c2ccccc2)c2ccccc2)CC1	8	i	1.1	3	99	101	-1.6
Cc1onc(-c2c(F)cccc2Cl)c1C(=O)Nc1nnc(-c2ccccc2)s1	-1	i	0.94	-36	51	102	-1.9
CCc1nc2cc(C)nn2c2nc3ccccc3n12	-1	i	0.92	·	·	92	-1.4
Cc1ccc(NC(=O)C2C3CCCC2C3c2ccccc2)cc1 (centres undefined)	0	i	1	-36	133	110	1.3
CN(C)C(=O)C(NC(=O)c1ccccc1)=C(Cl)Cl	-1	i	0.93	7	116	101	·
O=C(CCc1nc2ccccc2c(=O)[nH]1)NCc1ccccn1	-2	i	0.98	8	94	103	·
O=C(Nc1nc2ccc(S(=O)(=O)N3CCCC3)cc2s1)C1CCCCC1	-7	·	·	-12	109	113	1.5
COc1ccc2nc3ccccc3nc2c1N	·	i	0.87	·	·	108	·
CCCn1c(=S)[nH]c2ccccc2c1=O	-2	i	0.97	·	·	97	·
CC(C)Cn1c(S(=O)(=O)O)nc2ccccc21	·	i	0.94	·	·	96	·
O=C(Nc1cccc(Cl)c1)c1ccc(F)c(S(=O)(=O)NCc2ccc3c(c2)OCO3)c1	-12	i	0.95	-14	110	62	-2.7
CNC(=O)c1ccc(-c2ccc(Cl)c(Cl)c2)s1	-2	i	0.86	·	·	99	·
Cc1ccccc1C(=O)N1CCN(C(c2ccccc2)c2ccccc2)CC1	·	i	0.98	·	·	95	·
Cc1ccc(NC(=O)c2ccco2)c(NC(=O)C2CCCO2)c1 (centres undefined)	-1	i	0.92	42	115	105	·
CC1=C(C(=O)OC(C)C)C(c2ccccc2Cl)CC(=O)N1 (centres undefined)	3	·	·	-17	64	99	-1.5
Cc1noc(C)c1CSc1nnc(-c2cccnc2)n1C1CCCCC1C (centres undefined)	-5	i	1.1	·	·	105	-0.3
COc1ccc(OC)c(S(=O)(=O)N2Cc3ccccc3CC2C(=O)O)c1 (centres undefined)	1	i	0.89	50	95	100	-1.2
Cc1cc(NC(=O)C2CCN(S(=O)(=O)c3cnc[nH]3)CC2)ccc1Br	6	i	0.76	·	·	102	-0.7
COc1cc(/C=C/C(=O)OCC(=O)Nc2sc3c(c2C#N)CCC(C)C3)ccc1OCC#N (centres undefined)	1	i	1	·	·	96	·
COC(=O)c1c(NC(=O)Cc2ccccc2)sc(C)c1C	-9	i	0.77	-9	71	103	-0.3
CCCCCCP(=O)(O)c1ccccc1	-7	i	0.98	-28	75	98	-0.9
CCN(CC)S(=O)(=O)c1cccc(NC(=O)COC(=O)CCc2nc3ccccc3s2)c1	-10	i	0.91	25	91	100	-4.0
COc1ccc(C(=O)c2ccccc2)c(OCC(=O)N(C)C)c1	-7	i	0.99	·	·	101	·
CC(C)OC(=O)c1cccnc1SCc1cc(=O)n2ccccc2n1	-10	i	0.86	·	·	100	-3.3
Cc1cc(C)c(C(=O)COc2cccnc2[N+](=O)[O-])cc1C	0	i	1.1	-54	128	100	-0.8
c1ccc(CN2CCOCCOCCOCCOCCOCCOCC2)cc1	5	i	0.8	29	85	98	·
O=C(c1cccc([N+](=O)[O-])c1)N1CCN(C(=O)c2ccco2)CC1	1	i	1	35	94	101	·
Cc1cc(Cl)ccc1OCCCC(=O)NCCN1C(=O)S/C(=C\c2cccnc2)C1=O	4	i	1.2	-43	105	102	-0.6
O=C(CS(=O)(=O)Cc1ccccc1)Nc1nc2c(s1)CCCC2	-2	i	0.94	-3	152	98	2.4
CC(=O)n1cc([C@@H]2C=C(C(=O)N3CCN(Cc4ccc5c(c4)OCO5)CC3)O[C@H](OCc3ccc(CO)cc3)C2)c2ccccc21	-9	i	1.1	·	·	98	·
Cc1ccc(-c2nc3ccccc3n2C)o1	-19	i	0.97	57	162	101	-0.7
NC(=O)c1nsnc1-c1ccccc1O	-16	i	0.92	·	·	110	-1.3
Cc1cccc(NC(=O)c2ccccc2-c2ccccc2)c1	7	i	0.9	·	·	98	·
Cc1nn(Cc2cccc(C(=O)NC3CCCCC3)c2)c(C)c1Cl	4	·	·	69	57	109	-0.8
CC1CCN(S(=O)(=O)c2ccc3c(c2)c(=O)c(C(=O)NCc2cccs2)cn3C)CC1	-1	i	0.98	-43	115	63	-1.7

Some of these compounds in order of count of non-hydrogen atoms, high to low.
Compound	PKD1 inh	HSV replic up	HSV replic up primary fold	INS promoter inh	INS promoter inh cell count	RGS16-Gao	GALR2 agonist
COc1ccc(OC)c(S(=O)(=O)N2Cc3ccccc3CC2C(=O)O)c1 (centres undefined)	1	i	0.89	50	95	100	-1.2
Cc1ccc(-c2nc3ccccc3n2C)o1	-19	i	0.97	57	162	101	-0.7
CCCn1c(=S)[nH]c2ccccc2c1=O	-2	i	0.97	·	·	97	·

Continued:
| smiles | PKD1 inh | HSV replic up | HSV replic up primary fold | INS promoter inh | INS promoter inh cell count | RGS16-Gao | GALR2 agonist |
| --- | --- | --- | --- | --- | --- | --- | --- |
| Cc1cc(C)c(C)c(S(=O)(=O)N[C@@H](C)C(=O)OCc2cc(=O)n3cc(Br)ccc3n2)c1C | -3 | i | 0.99 | · | · | 96 | · |
| Cc1nnsc1C(=O)NNC(=O)Nc1ccccc1 | 10 | i | 0.96 | 8 | 96 | 99 | · |
| COc1cccc(CNC(=O)CSCc2cnn(-c3ccccc3)c2-n2cccc2)c1OC | 1 | i | 1.2 | -32 | 97 | 96 | -1.8 |
| COc1cccc(OC)c1C(=O)Nc1cc(Cl)ccc1N1CCOCC1 | -5 | i | 0.9 | -77 | 123 | 104 | -5.1 |

19 consecutive compounds already listed, for reference:
| smiles | PKD1 inh | HSV replic up | HSV replic up primary fold | INS promoter inh | INS promoter inh cell count | RGS16-Gao | GALR2 agonist |
| --- | --- | --- | --- | --- | --- | --- | --- |
| CCCCCCP(=O)(O)c1ccccc1 | -7 | i | 0.98 | -28 | 75 | 98 | -0.9 |
| CCN(CC)S(=O)(=O)c1cccc(NC(=O)COC(=O)CCc2nc3ccccc3s2)c1 | -10 | i | 0.91 | 25 | 91 | 100 | -4.0 |
| COc1ccc(C(=O)c2ccccc2)c(OCC(=O)N(C)C)c1 | -7 | i | 0.99 | · | · | 101 | · |
| CC(C)OC(=O)c1cccnc1SCc1cc(=O)n2ccccc2n1 | -10 | i | 0.86 | · | · | 100 | -3.3 |
| Cc1cc(C)c(C(=O)COc2cccnc2[N+](=O)[O-])cc1C | 0 | i | 1.1 | -54 | 128 | 100 | -0.8 |
| c1ccc(CN2CCOCCOCCOCCOCCOCCOCC2)cc1 | 5 | i | 0.8 | 29 | 85 | 98 | · |
| O=C(c1cccc([N+](=O)[O-])c1)N1CCN(C(=O)c2ccco2)CC1 | 1 | i | 1 | 35 | 94 | 101 | · |
| Cc1cc(Cl)ccc1OCCCC(=O)NCCN1C(=O)S/C(=C\c2cccnc2)C1=O | 4 | i | 1.2 | -43 | 105 | 102 | -0.6 |
| O=C(CS(=O)(=O)Cc1ccccc1)Nc1nc2c(s1)CCCC2 | -2 | i | 0.94 | -3 | 152 | 98 | 2.4 |
| CC(=O)n1cc([C@@H]2C=C(C(=O)N3CCN(Cc4ccc5c(c4)OCO5)CC3)O[C@H](OCc3ccc(CO)cc3)C2)c2ccccc21 | -9 | i | 1.1 | · | · | 98 | · |
| Cc1ccc(-c2nc3ccccc3n2C)o1 | -19 | i | 0.97 | 57 | 162 | 101 | -0.7 |
| NC(=O)c1nsnc1-c1ccccc1O | -16 | i | 0.92 | · | · | 110 | -1.3 |
| Cc1cccc(NC(=O)c2ccccc2-c2ccccc2)c1 | 7 | i | 0.9 | · | · | 98 | · |
| Cc1nn(Cc2cccc(C(=O)NC3CCCCC3)c2)c(C)c1Cl | 4 | · | · | 69 | 57 | 109 | -0.8 |
| CC1CCN(S(=O)(=O)c2ccc3c(c2)c(=O)c(C(=O)NCc2cccs2)cn3C)CC1 | -1 | i | 0.98 | -43 | 115 | 63 | -1.7 |
| Cc1cc(C)c(C)c(S(=O)(=O)N[C@@H](C)C(=O)OCc2cc(=O)n3cc(Br)ccc3n2)c1C | -3 | i | 0.99 | · | · | 96 | · |
| Cc1nnsc1C(=O)NNC(=O)Nc1ccccc1 | 10 | i | 0.96 | 8 | 96 | 99 | · |
| COc1cccc(CNC(=O)CSCc2cnn(-c3ccccc3)c2-n2cccc2)c1OC | 1 | i | 1.2 | -32 | 97 | 96 | -1.8 |
| COc1cccc(OC)c1C(=O)Nc1cc(Cl)ccc1N1CCOCC1 | -5 | i | 0.9 | -77 | 123 | 104 | -5.1 |
